From PubChem
Mtb betalactam: beta-lactam sensitization of Mtb H37Rv | M. tuberculosis H37Rv growth with meropenem, percent inhibition; hits of this screen are not shown here | inhibition, % at 25 µM | 330,000 tested, 0.27% active | AID 434955;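 active means about 74% or more and at least 40 points above the plate without the antibiotic, then above 30% in a dose series; inconclusive means first-round hits that could not be retested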;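 further: growth measured after seven days incubation then overnight dye step; 0% = bacteria only wells and 100% = bacteria with antibiotic; twin plates without the antibiotic show which effects depend on it; some results filed as inactive read as strong as hits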
Mtb H37Rv: M. tuberculosis H37Rv growth inhibitors, H37Rv strain (AID 1626); M. tuberculosis H37Rv growth inhibition; higher % means a stronger effect; inhibition, % at 10 µM, or IC50 in µM where a hit was titrated; 220,000 tested, 0.95% active;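 active means confirmed in a dose series; inconclusive means inhibition above 80% but not taken into the dose series; inactive means below 80% or under 30% at every dose of the series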;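 further: bacteria incubated seven days before Alamar blue readout; 0% = bacteria only wells and 100% = bacteria with antibiotic wells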
RecA splice inh: blocks M. tuberculosis RecA intein splicing | P9WHJ3 | cell-free RecA intein splicing, fluorescence | inhibition, %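 (about 9 µM by stock and volumes)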 | 290,000 tested, 0.75% active; in the data active means inhibition above about 30%; inconclusive means no clear call, values can overlap the other calls;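 further: 0% = vehicle wells and 100% = reference inhibitor control wells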
Target sequence (P9WHJ3 whole entry, looked up, canonical isoform): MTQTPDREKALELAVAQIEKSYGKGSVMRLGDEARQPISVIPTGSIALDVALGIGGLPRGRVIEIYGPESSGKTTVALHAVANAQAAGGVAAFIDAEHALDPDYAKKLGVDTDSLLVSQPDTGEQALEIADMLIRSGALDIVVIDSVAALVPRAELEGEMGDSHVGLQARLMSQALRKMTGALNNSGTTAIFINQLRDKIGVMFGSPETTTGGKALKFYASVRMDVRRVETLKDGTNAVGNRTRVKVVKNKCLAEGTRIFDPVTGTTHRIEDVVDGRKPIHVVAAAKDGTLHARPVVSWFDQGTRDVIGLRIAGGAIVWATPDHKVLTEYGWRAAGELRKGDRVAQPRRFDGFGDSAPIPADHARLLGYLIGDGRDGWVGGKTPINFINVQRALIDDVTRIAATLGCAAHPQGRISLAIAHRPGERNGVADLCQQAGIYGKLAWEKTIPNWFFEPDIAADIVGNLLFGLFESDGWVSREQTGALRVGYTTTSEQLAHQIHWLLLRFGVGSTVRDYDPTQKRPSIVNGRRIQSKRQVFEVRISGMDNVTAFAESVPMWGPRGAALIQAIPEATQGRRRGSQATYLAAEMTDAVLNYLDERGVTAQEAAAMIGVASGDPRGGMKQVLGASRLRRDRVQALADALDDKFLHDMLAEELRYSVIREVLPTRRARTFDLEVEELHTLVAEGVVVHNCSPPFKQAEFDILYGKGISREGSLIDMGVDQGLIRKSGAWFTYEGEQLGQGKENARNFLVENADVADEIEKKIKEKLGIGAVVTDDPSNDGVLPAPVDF
YopH PTP inh: YopH (Yersinia) phosphatase inhibition | inhibition, %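 (about 10 µM by stock and volumes)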 | AID 898 | 140,000 tested, 0.16% active | fluorescence Ex485/Em525;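 active means inhibition of 50% or more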;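 further: controls were vehicle for no effect and minimum signal wells for full effect; inactives centre near -20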
Arbovirus anti: antivirals against arbovirus infection. arbovirus infection cell-based antiviral screen. inhibition, % at 10 µM. 200,000 tested, 0.37% active;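 active means inhibition from about 30%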;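 further: bluetongue infection of BSR cells; cell survival read as ATP light after 72 h; 0% = infected wells without compound and 100% = uninfected wells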
Arbovirus anti repeat: recorded beside Arbovirus anti, whose call it bears; inhibition, %; measured here: 10K subset replicate screen; many hits read low in the repeat;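 first of two repeat runs on a subset; 0% = infected and 100% = uninfected wells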
An asterisk follows results filed as active. This is a subset; count on the stated rates, not on these rows.

How did COc1ccccc1-n1c(SCC(=O)O)nc2sc3c(c2c1=O)CCC3 do in these assays?
Mtb betalactam: -3; Mtb H37Rv: 2%; RecA splice inh: 0.9

Results for CCCc1nc(NCCCOCC)c2nnn(Cc3ccccc3)c2n1 ?
Mtb betalactam: 4; RecA splice inh: -2.1

What do the screens show for `CC(C(=O)N1CCCCC1)N(C)CC(=O)Nc1ccc(Cl)cc1` (configuration not stated)?
Mtb betalactam: 3; Mtb H37Rv: 7%; RecA splice inh: 0.4; Arbovirus anti: 0

What do the screens show for `CC(C)c1ccc(/C=C/C(=O)NC(=S)Nc2ccc(CN3CCOCC3)cc2)cc1`?
Mtb betalactam: 8; Mtb H37Rv: 3%; RecA splice inh: 5.9; YopH PTP inh: -21; Arbovirus anti: -9

How did Cc1cc(C)c(NC(=O)C2CCCO2)c(C)c1NC(=O)C1CCCO1 (configuration not stated) do in these assays?
Mtb betalactam: 0; RecA splice inh: 4.6

Results for COc1cc(NS(=O)(=O)c2c(C)[nH]c(C)c2C(=O)N2CCCC2)cc(OC)c1OC ?
Mtb betalactam: inconclusive; RecA splice inh: 0.2

How did Cc1cc(C)c(C(=O)CN2C(=O)NC3(CCCCC3)C2=O)cc1C do in these assays?
Mtb betalactam: 5; Mtb H37Rv: 5%; RecA splice inh: -1.3; Arbovirus anti: 2

How did COc1ccc(S(=O)(=O)NC2CC(C)(C)NC(C)(C)C2)c(C)c1C do in these assays?
Mtb H37Rv: -5%; RecA splice inh: -1.4; YopH PTP inh: 9; Arbovirus anti: -2

How did COC(=O)c1cc2n(n1)CCN(Cc1cccc(OC)c1)C2=O do in these assays?
Mtb betalactam: 5; Mtb H37Rv: 9%; RecA splice inh: -0.7; Arbovirus anti: 1

Results for COc1ccccc1N1CCN(CC(O)COc2ccc(S(=O)(=O)N3CCOCC3)cc2)CC1 (configuration not stated) ?
Mtb betalactam: -1; Mtb H37Rv: 0%; RecA splice inh: 3.5; YopH PTP inh: -43; Arbovirus anti: 3

Results for Cc1oc(-c2ccccc2F)nc1CS(=O)(=O)CC(=O)NCCCc1ccccc1 ?
Mtb betalactam: 6; Mtb H37Rv: -3%; RecA splice inh: 2.4; YopH PTP inh: -20; Arbovirus anti: -4

Results for COc1cccc(C2C(C(=O)NCc3ccccc3)=C(C)Nc3ncnn32)c1 (configuration not stated) ?
Mtb betalactam: 3; Mtb H37Rv: -1%; RecA splice inh: 0.4; YopH PTP inh: -31; Arbovirus anti: 3

How did S=C(NCC1CCCO1)Nc1ccc(Cl)cc1Cl (configuration not stated) do in these assays?
Mtb betalactam: 0; Mtb H37Rv: 2%; RecA splice inh: 0.8; YopH PTP inh: -12; Arbovirus anti: 10

What do the screens show for `COc1ccc(OC)c(S(=O)(=O)N2CCC(C(=O)Nc3cccc(C)c3C)CC2)c1`?
Mtb betalactam: 1; Mtb H37Rv: -9%; RecA splice inh: 0.3; YopH PTP inh: -46; Arbovirus anti: 6

Results for CCN(CC)S(=O)(=O)c1cccc(N=Nc2c(O)c3ccccc3oc2=O)c1 ?
Mtb betalactam: 2; Mtb H37Rv: -3%; RecA splice inh: -1.7

What do the screens show for `CCNC(=O)CC1C(=O)N(c2cccc(OC)c2)C(=O)N1CCOC` (configuration not stated)?
Mtb betalactam: -6; Mtb H37Rv: -3%; RecA splice inh: -2.7; YopH PTP inh: 32; Arbovirus anti: -2

Results for COc1ccc(CNC(=O)C(C)Sc2nc3ccccc3c(=O)n2CCCN2CCOCC2)cc1 (configuration not stated) ?
Mtb betalactam: -2; Mtb H37Rv: 0%; RecA splice inh: -3.7; Arbovirus anti: 3

Results for N#Cc1nc(-c2ccccc2)oc1N1CCN(C(=O)c2ccco2)CC1 ?
Mtb betalactam: 8; RecA splice inh: 1.2

What do the screens show for `O=C(CCc1ccc(S(=O)(=O)NCCc2ccccc2)cc1)Nc1ccc2c(c1)OCO2`?
Mtb betalactam: 1; Mtb H37Rv: 7%; YopH PTP inh: -38; Arbovirus anti: -23

What do the screens show for `Cc1cc(C)cc(SCc2noc(C(=O)NC(C)C)c2C(=O)NC(C)C)c1`?
Mtb betalactam: -1; RecA splice inh: 1.0

How did O=C(Cc1ccccc1[N+](=O)[O-])OCN1C(=O)c2ccccc2C1=O do in these assays?
Mtb betalactam: -1; RecA splice inh: 18

Results for Cc1csc(SCC(=O)Nc2ccc(Cl)cn2)n1 ?
Mtb betalactam: 6; Mtb H37Rv: -12%; YopH PTP inh: -38; Arbovirus anti: -4

How did O=c1c2c(ncn2C2CCCC2)n(Cc2ccccc2)c(=O)n1CCOc1ccc(Br)cc1 do in these assays?
Mtb betalactam: 2; Mtb H37Rv: 14%; RecA splice inh: 3.5; YopH PTP inh: -17; Arbovirus anti: -9

Results for COC(=O)C1=C(CSc2nccn2C)NC(=O)NC1c1cc(C)ccc1C (configuration not stated) ?
Mtb betalactam: -7; Mtb H37Rv: 1%; RecA splice inh: 0.7; YopH PTP inh: -16; Arbovirus anti: 5

How did CCCC1C2C(=O)N(c3cccc(C)c3)C(=O)C2ON1c1ccccc1 (configuration not stated) do in these assays?
Mtb betalactam: -10; Mtb H37Rv: -2%; RecA splice inh: -0.5

How did CCC(C)/C(C)=N/NC(=O)CNS(=O)(=O)c1ccc([N+](=O)[O-])cc1 (configuration not stated) do in these assays?
Mtb betalactam: 5; Mtb H37Rv: 9%; RecA splice inh: 3.5; Arbovirus anti: -2

Results for COc1ccc(C(=O)OC/C(O)=C(\C#N)c2nc3ccccc3[nH]2)cc1S(=O)(=O)N1CCOCC1 ?
Mtb betalactam: 6; Mtb H37Rv: -6%; RecA splice inh: 9.2; YopH PTP inh: -31; Arbovirus anti: 9

How did Cc1cc(C)cc(N2C(=O)CN(Cc3sccc3C)C2=S)c1 do in these assays?
Mtb betalactam: 1; Mtb H37Rv: 1%; RecA splice inh: 1.9; YopH PTP inh: -9; Arbovirus anti: -7

How did CC(O)C(=O)N/N=C/c1ccccc1C(=O)O (configuration not stated) do in these assays?
Mtb betalactam: 2; Mtb H37Rv: -5%; RecA splice inh: -0.9; Arbovirus anti: -4

Results for CSc1nccn1CC(=O)Nc1ccc(F)cc1 ?
Mtb betalactam: -15; Mtb H37Rv: -1%; RecA splice inh: 11; YopH PTP inh: -24; Arbovirus anti: 6

Results for O=C(Nc1ccc(Cl)cc1)ON=C1CCCC1 ?
Mtb betalactam: inconclusive; Mtb H37Rv: 11%; RecA splice inh: -1.4; YopH PTP inh: -25; Arbovirus anti: -9

Results for COc1cc(OC)cc(C(=O)N2CCN(Cc3ccccc3Br)CC2)c1 ?
Mtb betalactam: 0; Mtb H37Rv: -15%; RecA splice inh: 4.0; Arbovirus anti: 1

How did CC(C)=CCc1c(-c2ccc(O)cc2O)oc2c3c(cc(O)c2c1=O)OC(C)(C)C=C3 do in these assays?
Mtb betalactam: 1; Mtb H37Rv: 4%

What do the screens show for `COc1ccc(/C=C(/NC(=O)c2ccccc2Cl)C(=O)NCCCC(=O)O)cc1`?
Mtb betalactam: -4; Mtb H37Rv: 3%; RecA splice inh: 0.0; Arbovirus anti: 1

How did CCOC(=O)c1cc(-c2ccccc2)sc1NC(=O)C(C)Sc1nnc(N)s1 (configuration not stated) do in these assays?
Mtb betalactam: -2; Mtb H37Rv: 23%; RecA splice inh: 11; YopH PTP inh: 0; Arbovirus anti: -3

How did Cc1nc2ccc(Br)cc2c(=O)n1Cc1cccs1 do in these assays?
Mtb betalactam: 4; RecA splice inh: -4.2

What do the screens show for `CCOC(=O)C1CCN(C(=O)c2cccc(N3C(=O)NC4CC3(C)Oc3ccc(C)cc34)c2)CC1` (configuration not stated)?
Mtb betalactam: -4; RecA splice inh: -6.2

What do the screens show for `Cc1c(Br)ccc(NC(=O)c2ccccc2[N+](=O)[O-])c1C`?
Mtb betalactam: 15; Mtb H37Rv: 8%; RecA splice inh: -1.8; Arbovirus anti: -3

What do the screens show for `CCCc1cc(=O)[nH]c2nnc(SCC(=O)Nc3nccs3)n12`?
Mtb betalactam: -2; RecA splice inh: -0.3

What do the screens show for `O=C(Cn1cc2c(n1)CCCCC2)Nc1ccccc1Cl`?
Mtb betalactam: -8; Mtb H37Rv: 5%; RecA splice inh: 1.8

What do the screens show for `COc1ccc(C(=O)C2CCCN(Cc3ccc4c(c3)OCCO4)C2)cc1F` (configuration not stated)?
Mtb betalactam: 0; Mtb H37Rv: 6%; RecA splice inh: 0.7

How did O=C(Nc1ccc(Br)cc1)c1cccc(N2C(=O)C3C4C=CC(C4)C3C2=O)c1 (configuration not stated) do in these assays?
Mtb betalactam: -5; RecA splice inh: 4.1

Results for CCP(=O)(c1ccccc1)C(C)(C)O (configuration not stated) ?
Mtb betalactam: 4; Mtb H37Rv: -3%; RecA splice inh: 1.1; YopH PTP inh: -35; Arbovirus anti: -5; Arbovirus anti repeat: 0

How did CC(C)c1ccc2oc(=O)cc(CN3CCN(Cc4ccccc4)CC3)c2c1 do in these assays?
Mtb betalactam: 89; RecA splice inh: 4.2

What do the screens show for `O=C(Nc1cccc2ncccc12)c1cc(Br)ccc1Cl`?
Mtb betalactam: 3; RecA splice inh: 0.1

Quoted at random: 2 entries already listed.
What do the screens show for `COc1ccc(C(=O)C2CCCN(Cc3ccc4c(c3)OCCO4)C2)cc1F` (configuration not stated)?
Mtb betalactam: 0; Mtb H37Rv: 6%; RecA splice inh: 0.7

Results for COc1cc(NS(=O)(=O)c2c(C)[nH]c(C)c2C(=O)N2CCCC2)cc(OC)c1OC ?
Mtb betalactam: inconclusive; RecA splice inh: 0.2

(list continues)
What do the screens show for `Cc1ccc(-c2ccc(/C=C3\SC(N4CCOCC4)=NC3=O)o2)cc1`?
Mtb betalactam: 47; Mtb H37Rv: 23µM*; RecA splice inh: -26; Arbovirus anti: 16

What do the screens show for `CC(=O)Oc1ccc(-c2csc(Nc3ccc(Cl)cn3)n2)cc1`?
Mtb betalactam: 80; RecA splice inh: 3.0

How did COc1ccccc1-n1c(CCn2nc(C)c(Br)c2C)n[nH]c1=S do in these assays?
Mtb betalactam: -5; Mtb H37Rv: -4%; RecA splice inh: -0.6; YopH PTP inh: -27; Arbovirus anti: 0

Results for CCOc1ccc(S(=O)(=O)N/N=C2/CC(c3ccccc3)Oc3ccccc32)cc1 (configuration not stated) ?
Mtb betalactam: 11; Mtb H37Rv: -12%; RecA splice inh: 3.1; YopH PTP inh: 0; Arbovirus anti: -11

How did CC(C)CC1NC(=O)N(Cc2nc3ccccc3s2)C1=O (configuration not stated) do in these assays?
Mtb betalactam: 1; Mtb H37Rv: -8%; RecA splice inh: 0.0

What do the screens show for `O=C(CN1c2ccccc2Sc2ccccc21)N/N=C/c1ccc(Cl)cc1`?
Mtb betalactam: 1; Mtb H37Rv: -8%; RecA splice inh: -4.0

How did CC(=O)N(C)C1=C(N2CCOCC2)C(=O)c2ccccc2C1=O do in these assays?
Mtb betalactam: 64; Mtb H37Rv: 3%; RecA splice inh: 32*; YopH PTP inh: 16; Arbovirus anti: -40

What do the screens show for `COc1cc2[nH]c(-c3cccc(F)c3)cc(=O)c2cc1OC`?
Mtb betalactam: 32; Mtb H37Rv: 11%; RecA splice inh: 0.9; YopH PTP inh: -11; Arbovirus anti: -1

What do the screens show for `COc1ccc(/C(C)=N/OCC(=O)N=Nc2c(O)[nH]c3ccc(Br)cc23)cc1`?
Mtb betalactam: -3; Mtb H37Rv: -2%; RecA splice inh: -0.4; YopH PTP inh: -31; Arbovirus anti: -12

What do the screens show for `COC(=O)C1(Cc2ccccc2)NC(c2ccccc2C)C2C(=O)N(c3ccc4c(c3)OCO4)C(=O)C21` (configuration not stated)?
Mtb betalactam: 1; Mtb H37Rv: -5%; RecA splice inh: 4.1; YopH PTP inh: 20; Arbovirus anti: -1

Results for O=C(NNC(=O)C1CCN(c2ncccn2)CC1)c1ccc(Cl)cc1 ?
Mtb betalactam: 0; Mtb H37Rv: 3%; RecA splice inh: 0.0; Arbovirus anti: 1

How did O=C(N/C(=C/c1ccc(Cl)cc1)C(=O)N1CCCCC1)c1ccco1 do in these assays?
Mtb betalactam: -3; RecA splice inh: -1.6

What do the screens show for `O=C(O)C1CN(c2ncccc2[N+](=O)[O-])C1`?
Mtb betalactam: 2; Mtb H37Rv: -6%; RecA splice inh: 0.9; Arbovirus anti: 3

What do the screens show for `Oc1cccc(NC(=S)Nc2ccccc2)c1`?
Mtb betalactam: -2; Mtb H37Rv: -1%; RecA splice inh: 3.2

Results for CCN(CC)c1c([N+](=O)[O-])c(=O)n(CC)c2ccccc12 ?
Mtb betalactam: 0; Mtb H37Rv: 10%; RecA splice inh: 5.0

What do the screens show for `CCOC1OC(=O)C(Cl)=C1Nc1ccc(C)cc1` (configuration not stated)?
Mtb betalactam: -1; Mtb H37Rv: -4%; RecA splice inh: 1.9; Arbovirus anti: -10
